Screening data: PubChem BioAssay, several laboratories
Vif TR-FRET: inhibitors of Vif binding to APOBEC3G peptide, primary screen, biochemical, TR-FRET, GST-Vif 1-94, biotin-A3G peptide, dose response retest (AID 1117319); 260,000 compounds, 0.57% hits; one-dose inhibition, %; IC50 in µM for titrated hits; Virion infectivity factor (Human immunodeficiency virus type 1 group M subtype B (isolate …; TR-FRET GST-Vif / biotin-A3G peptide binding; higher % means a stronger effect; test concentration not given here; strong numbers were not always called active;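 active means above the screen mean plus three standard deviations and confirmed in dose response; inconclusive means results disagree or hit not tested in dose response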;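 further: Vif residues 1-94 fused to GST binding biotinylated APOBEC3G peptide 110-148; 0% = full assay without inhibitor and 100% = GST in place of GST-Vif; retest series ran down from 100 µM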
UCH37 DUB inh: inhibitors of human UCH37 deubiquitinase, primary screen, biochemical, Ub-AMC cleavage, fluorescence. 330,000 compounds, 0.33% hits. purified proteasome/UCH37. Ubiquitin carboxyl-terminal hydrolase isozyme L5 (Homo sapiens), Q9Y5K5. inhibition, % (concentration not given with the values);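 active means mean of two replicates above 20%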;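 further: 0% = compound-free wells with enzyme and 100% = wells lacking proteasome; stock transfer was 100 nL into about 20 µL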
Target sequence (Q9Y5K5 whole entry, looked up): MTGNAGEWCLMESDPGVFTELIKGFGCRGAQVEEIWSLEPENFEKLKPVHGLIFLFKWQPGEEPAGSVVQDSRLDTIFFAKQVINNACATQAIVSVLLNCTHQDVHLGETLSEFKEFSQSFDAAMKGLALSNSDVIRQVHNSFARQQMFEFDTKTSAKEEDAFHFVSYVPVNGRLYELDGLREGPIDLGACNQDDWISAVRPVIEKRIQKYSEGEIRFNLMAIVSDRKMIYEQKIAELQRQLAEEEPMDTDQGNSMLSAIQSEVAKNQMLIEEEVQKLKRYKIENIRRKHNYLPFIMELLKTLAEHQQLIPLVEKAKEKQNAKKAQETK
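Material: human UCH37 enzyme supplied as purified proteasome complex / Amount: 0.15 nM proteasome as dispensed / Buffer or medium: pH 7.4 Tris-HCl (50 mM) with ovalbumin, ATP-MgCl2, DTT / Times: preincubation 30 min, reaction 25 min, room temperature / Technique: AMC fluorescence from Ub-AMC cleavage, excitation 355 nm, emission 460 nm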
RanGTP-Imp inh: inhibitors of RanGTP-importin-beta interaction, primary screen, biochemical, FRET, CFP-Ran, YFP-importin-beta, homogeneous; Ran GTPase (GTP-bound) - importin-beta complex; cell-free CFP-Ran/YFP-importin-beta FRET ratio; inhibition, % (concentration not given with the values); 300,000 compounds, 1.1% hits;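 active means most replicates above 15%; inconclusive means exactly half above 15%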;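 further: 0% = DMSO wells and 100% = Ran loaded with GDP instead of GTP; wells of about 40 µL received 100 nL stock; the first replicate is given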
MLL AF4-AF9 inh: inhibitors of AF4 peptide binding to AF9, primary screen, biochemical, AlphaScreen, biotin-AF4 peptide, FLAG-AF9, single point. 350,000 compounds, 0.47% hits. inhibition, % at 10 µM. AID 651704, 2012. Protein AF-9 (Homo sapiens), P42568;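 active means every replicate reaching a set inhibition limit, whatever the replicate mean, cut at about 25% in these data; inconclusive means mean inhibition reaches that limit but some replicates miss it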;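 further: 0% = plate neutral control median and 100% = total signal loss; the record names both 10 and 1 µM as test concentration; the first replicate is given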
Target sequence (P42568 whole entry, looked up): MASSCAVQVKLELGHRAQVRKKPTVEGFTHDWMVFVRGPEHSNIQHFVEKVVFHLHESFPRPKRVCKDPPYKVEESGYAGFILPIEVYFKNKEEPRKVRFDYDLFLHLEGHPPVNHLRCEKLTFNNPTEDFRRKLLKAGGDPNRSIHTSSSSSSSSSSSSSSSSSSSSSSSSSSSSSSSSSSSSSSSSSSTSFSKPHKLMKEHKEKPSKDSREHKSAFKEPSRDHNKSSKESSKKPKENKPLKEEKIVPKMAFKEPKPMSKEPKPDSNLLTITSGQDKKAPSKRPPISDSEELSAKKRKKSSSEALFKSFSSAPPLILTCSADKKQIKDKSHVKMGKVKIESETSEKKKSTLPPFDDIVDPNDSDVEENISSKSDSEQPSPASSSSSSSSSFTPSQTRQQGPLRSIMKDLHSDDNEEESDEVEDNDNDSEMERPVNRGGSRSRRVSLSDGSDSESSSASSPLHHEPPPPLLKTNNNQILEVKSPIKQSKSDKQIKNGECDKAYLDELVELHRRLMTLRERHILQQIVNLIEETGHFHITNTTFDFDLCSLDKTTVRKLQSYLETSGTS
Ecoli growth: E. coli growth inhibition, primary screen, OD600 | Escherichia coli growth, 23 h; stronger effect = lower value | AID 1053175, 2014 | 330,000 compounds, 0.21% hits | OD600 absorbance (concentration not given with the values);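 active means OD600 absorbance below the run mean of sample wells minus 3.6 SD, in any replicate, cut at about 0.56 in these data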;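 further: stock transfer was 300 nL into about 60 µL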
HNF4A DNA FP: change in binding of human HNF4A to DNA, primary screen, biochemical, fluorescence polarization, FITC-DNA; 1 h; activity change, % at 10 µM; 360,000 compounds, 0.3% hits; AID 1224865, 2016; in the data active means activity change above about 30%, passing the limit was not always enough;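 further: controls were the assay level and a saturating level of protein; the project sought stronger binding though the title names inhibitors; some compounds called inactive have numbers as strong as hits; positive values seem to mean higher polarization but the record does not say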
FGF22 binding: binders of human FGF22 protein, primary screen, FGF22 synaptogenesis inhibitor project, biophysical, thermal shift, single point | Fibroblast growth factor 22 (Homo sapiens), Q9HCT0 | recombinant FGF22 thermal shift, SYPRO orange fluorescence; percent of sucrose octasulfate shift, DMSO zero | calls only at 9.99 µM | 340,000 compounds, 1.5% hits | AID 651658, 2012;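 active means melting point raised past a set limit in the mean and every replicate; inconclusive means no clear call; three in four hits are not shown here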
Target sequence (Q9HCT0 whole entry, looked up): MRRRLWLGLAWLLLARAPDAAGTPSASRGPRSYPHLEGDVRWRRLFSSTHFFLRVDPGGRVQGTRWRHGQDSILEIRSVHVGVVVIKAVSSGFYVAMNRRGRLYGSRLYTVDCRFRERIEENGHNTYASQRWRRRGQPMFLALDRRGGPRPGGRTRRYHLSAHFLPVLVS
Starred values were filed as active, the others as inactive; i = inactive; ? = inconclusive; . = no result given; & = joins results of further samples.

SMILES	Vif TR-FRET	UCH37 DUB inh	RanGTP-Imp inh	MLL AF4-AF9 inh	Ecoli growth	HNF4A DNA FP	FGF22 binding
CCN(CC(=O)Nc1ccc(NC(C)=O)cc1)C(=O)C1CC(=O)N(Cc2ccc(C)cc2)C1 (stereo unspecified)	-2.4%	4.1	1.1	9.3	0.66	4.2	i
CCOC(=O)CC(NC(=O)c1cccs1)c1ccc(C)cc1 (stereo unspecified)	-1.0%	1.0	7.0	-2.2	0.72	-0.6	i
CCOc1ccc(CNc2ccc(N3CCOCC3)c(C(=O)O)c2)cc1	6.8%	-5.0	3.4	.	0.771	-1.0	.
Cc1cc2c(=O)n(C)c(SCC(=O)Nc3ccccc3C)nc2s1	7.4%	-0.8	2.1	-1.6	0.609	-2.3	.
Cc1nc(S(=O)(=O)Cc2ccc(Cl)cc2)nc2c1CCC2	-10.4%	0.9	-0.2	-1.2	0.703	-2.7	i
Cn1c(NCc2cccnc2)nc2cc(-c3cccc(C(=O)NCCO)c3)sc2c1=O	.	.	.	0.7	.	1.3	i
O=C(Cc1cccs1)NC(c1ccccc1)c1ccccc1	-6.4%	3.3	2.9	2.6	0.693	1.7	i
CCc1cccc(NC(=O)Cn2c(=O)n(CCC(=O)NCC3CCCO3)c(=O)c3cc(OC)c(OC)cc32)c1 (stereo unspecified)	4.7%	-12.9	0.3	1.9	0.688	4.5	i
CC1CCN(C(=O)c2ccc(NC(=O)c3ccccc3)cc2)CC1	4.0%	0.9	0.2	-0.8	0.719	0.6	i
CCCN1CCC(C)(C(=O)Nc2cccc(OC(C)C)c2)C1 (stereo unspecified)	.	.	.	-1.4	.	-0.8	i
CCc1ccc(OCC(=O)Nc2ncn[nH]2)cc1	-5.8%	-0.9	-2.1	-2.5&-9.4	0.662	1.3	i
Nc1ccc(C(=O)OCC(=O)NC(=O)c2ccccc2)cc1[N+](=O)[O-]	2.0%	1.4	-1.1	1.1	0.625	-2.6	i
OCCCNc1ncnc2c1cnn2-c1ccc(Cl)cc1	9.6%	-3.8	8.2	-5.3	0.67	-0.1	i
Cc1ccc(C(=O)/C=C/N(C)C)cn1	?	16.9	0.3	-0.9	0.712	-1.9	i
CC(C)(C)NC(=O)NC(=O)CN1CCN(S(=O)(=O)/C=C/c2ccccc2)CC1	.	5.6	-3.4	-0.4	0.69	0.8	i
O=C(Cc1ccccc1[N+](=O)[O-])NCc1ccc(Cl)cc1Cl	.	1.7	1.1	.	0.706	1.6	.
CN1CC(c2ccc(C#N)cc2)C2(COc3ccccc3C2=O)C12C(=O)Nc1ccccc12 (stereo unspecified)	-3.4%	-1.5	3.4	.	0.722	2.6	.
Cc1n[nH]c(C)c1NC(=O)c1cc([N+](=O)[O-])ccc1Cl	13.3%	1.3	-3.2	-1.7	0.649	0.8	.
CCOc1ccc2[nH]c(C(=O)N/N=C/c3cc(OC)c(OC)c(OC)c3)cc2c1	-5.6%	.	?	-4.2	.	0.6	i
CC1(C(=O)NS(=O)(=O)c2cccc(Cl)c2)CCN1C(=O)c1cccc(F)c1 (stereo unspecified)	.	.	.	0.4	.	-6.5	i

Fetched by structure from above, 2 records:
SMILES	Vif TR-FRET	UCH37 DUB inh	RanGTP-Imp inh	MLL AF4-AF9 inh	Ecoli growth	HNF4A DNA FP	FGF22 binding
OCCCNc1ncnc2c1cnn2-c1ccc(Cl)cc1	9.6%	-3.8	8.2	-5.3	0.67	-0.1	i
Cc1ccc(C(=O)/C=C/N(C)C)cn1	?	16.9	0.3	-0.9	0.712	-1.9	i

Going on with the list:
SMILES	Vif TR-FRET	UCH37 DUB inh	RanGTP-Imp inh	MLL AF4-AF9 inh	Ecoli growth	HNF4A DNA FP	FGF22 binding
O=S1(=O)C=C(N2CCCCC2)c2ccccc21	0.9%	4.7	5.6	.	0.71	-6.2	.
N/C(=N\OC(=O)CCC1CCCC1)c1ccccc1	24.4%	2.8	0.0	2.4	0.682	3.7	i
CCN(Cc1cc(=O)oc2cc(C)ccc12)c1ccccc1	.	1.2	-2.2	2.9	0.681	-3.9	i
O=C(NC1CCCCC1)C1CCCN(S(=O)(=O)c2cccs2)C1 (stereo unspecified)	4.9%	1.6	2.5	.	0.75	3.7	.
C[C@H](CO)N1C[C@H](C)[C@@H](CN(C)Cc2ccncc2)Oc2ncc(Br)cc2C1=O	.	.	.	-8.0&-4.3	.	0.8	i
O=C(CCc1ccc(S(=O)(=O)N2CCOCC2)cc1)NN=C1CCCCCCC1	.	-4.0	1.0	.	0.687	0.9	.
Cc1ccc(-c2nnc(SCC(=O)NCC3CCCO3)nc2-c2ccc(C)cc2)cc1 (stereo unspecified)	-4.1%	7.1	.	6.3	0.665	1.2	i
CN(C)c1ccc(/C=N/NC(=O)c2nnn(-c3nonc3N)c2COc2ccc(F)cc2)cc1	21.7%	.	0.1	0.1	.	-5.2	i
O=C1Cc2cc(S(=O)(=O)N3CCNCC3)ccc2N1	-2.6%	.	.	8.3	.	0.1	i
CCCCCCNC(=O)CCCCCNS(=O)(=O)c1ccc(OC)cc1	-4.8%	4.0	1.5	3.8	0.688	2.6	i
Cc1ccc(NC(=O)Nc2cccs2)nc1	3.5%	5.1	5.0	.	0.646	-5.0	.
CCn1c(SCC(=O)OC(C)C)nnc1-c1cccc(Cl)c1	10.8%	-2.4	-1.6	.	0.652	-0.4	.
CC(NC(=O)CN1CCN(c2ccc(Cl)cc2)CC1)c1ccccc1 (stereo unspecified)	.	0.2	-2.1	1.2	0.64	1.3	i
CN1CCN(C2=NC(=O)/C(=C/c3cn[nH]c3-c3ccccc3)S2)CC1	-7.7%	14.2	-2.0	0.8	0.642	-1.3	i
Cc1ccc(Cl)cc1N1CCN(CC(=O)Nc2ccc(CN3CCCCC3)cc2)CC1	?	-3.8	0.1	.	0.729	0.0	.
Cn1c(=O)c(=O)n(C)c2cc(S(=O)(=O)Nc3ccc(OC(F)(F)F)cc3)ccc21	-5.0%	6.2	3.3	-53.2	0.671	-1.4	i
O=C(CC1CCCC1)NNC(=O)c1ccc(Br)cc1	-4.8%	-1.0	.	0.0	0.686	0.7	i
COc1cccc(C(C)(O)c2nc(-c3ccc(S(C)(=O)=O)cc3)cs2)c1 (stereo unspecified)	.	.	.	-1.1	.	2.8	i
Cc1cccc(C)c1C(O)c1ncc(-c2cccc3ccccc23)[nH]1 (stereo unspecified)	.	.	.	10.7	.	2.3	i
O=C(Nc1cccn(Cc2c(Cl)cccc2Cl)c1=O)c1c(Cl)cccc1Cl	-2.5%	1.2	?	.	0.741	3.5	.
O=C(Nc1ccc2c(c1)OCCO2)c1cnn(-c2ccccc2)n1	0.7%	1.5	.	-1.0	0.648	-4.4	i
COCCn1c(SC2CCCCC2=O)nnc1-c1ccncc1 (stereo unspecified)	15.3%	4.1	0.3	-1.8	0.742	-0.1	i
CC(C)[C@H]1C(=O)Nc2ccccc2N1C(=O)N[C@@H](Cc1ccccc1)C(=O)N[C@@H](C(=O)O)c1ccccc1	.	0.2	?	-3.6	0.794	4.9	i
CCn1c(=O)n(CC(=O)NCC2CCCO2)c(=O)c2c3c(sc21)COC(C)(C)C3 (stereo unspecified)	.	2.8	3.1	-1.5	0.679	1.0	i
O=C(c1ccccc1[N+](=O)[O-])N(CCc1ccccc1)Cc1ccccc1	.	2.4	-0.9	3.2	0.715	0.1	i
C[C@H](CO)N1C[C@H](C)[C@@H](CN(C)C(=O)NC2CCCCC2)Oc2ccc(NS(=O)(=O)c3cn(C)cn3)cc2C1=O	3.4%	11.6	.	-2.8&-2.3	0.718	1.9	i
Cc1cc2nnc(SCC(=O)N3C(C)CCCC3C)n2c(N)n1 (stereo unspecified)	27.6%	2.6	4.2	.	0.658	4.7	.
Cc1nc(N=C(N)N)nc2c(C)cccc12	-17.1%	-17.3	1.7	14.1	0.664	0.9	i
CC(C)(C)Cn1c(=O)[nH]c(=O)c2cc([N+](=O)[O-])cnc21	.	3.2	0.4	.	0.667	0.8	.
COCC(C)NC(=O)c1ccc2c(c1)S(=O)(=O)c1ccccc1C2=O (stereo unspecified)	.	7.0	-0.3	0.7	0.724	0.2	i
CC(=O)Nc1ccc(SC[C@H](CC(C)C)N2CCN(CC(C)C)CCC2=O)cc1	.	4.2	-2.4	1.0	.	1.4	i
COc1ccc(CNc2nc3ccccc3n2Cc2ccc(Cl)cc2)cc1OC	-3.5%	5.3	-3.1	7.6	0.698	-1.8	i
O=C(CSc1ccc2nnc(-c3cccnc3)n2n1)Nc1ccccc1F	.	.	.	-0.9	.	-1.3	i
CCOC(=O)C1(C)CCN1C(=O)c1c(F)cccc1F (stereo unspecified)	.	.	.	0.1	.	-0.7	i
O=C(Nc1ccc(-c2nc3ccccc3o2)cc1)c1cccnc1	-0.3%	-6.7	-1.4	.	0.677	3.7	.
O=C1CN(C(=O)C2CCC(=O)N(CCc3ccc(Cl)cc3)C2)CCN1 (stereo unspecified)	-6.3%	0.4	1.9	0.8	0.685	2.0	i
COc1ccc(C(=O)C2CCCN(C(=O)CCNC(C)=O)C2)cc1OC (stereo unspecified)	.	0.1	3.9	1.5	0.667	-2.6	i
Cc1cc(O)cc(O)c1/C=N/NC(=O)c1ccc2c(c1)OCCO2	-1.2%	.	.	1.0	.	-2.0	i
CC(C)c1ccc(C(=O)N(c2ccccn2)C(C)c2ccco2)cc1 (stereo unspecified)	25.4%	0.6	7.1	.	0.643	1.1	.
CC1(C)N=C(C(=O)c2ccccc2)N(O)C1(C)O (stereo unspecified)	-5.7%	0.0	0.8	.	0.689	1.5	.
CCNS(=O)(=O)c1ccc(CCC(=O)NC2CCCC2)cc1	-4.9%	1.8	-3.4	.	0.684	-3.2	.
O=C(CN1C(=O)c2ccccc2S1(=O)=O)NCc1ccccc1	1.3%	-1.7	2.9	-1.3	0.668	4.2	i
Cc1ccccc1NC(=O)Cn1c(NCC(C)O)nc2ccccc21 (stereo unspecified)	.	-0.4	-1.2	-0.7	0.697	2.8	i
COc1ccccc1NS(=O)(=O)c1ccc(C)c(NS(=O)(=O)c2cc(C(=O)O)cc(C)c2C)c1	.	3.1	2.4	-1.4	0.737	-0.4	i
O=S(=O)(c1ccc2c(c1)CCN2)N1CCCC1	-4.0%	1.7	.	-3.7	0.631	-2.3	i
CC[C@@H]1CN(C)[C@H]2Cc3c([nH]c4ccccc34)C(=O)C[C@@H]1[C@@H]2C(=O)OC	.	-37.1	-4.2	-1.5	0.653	-5.8	i
Cc1cccc(N2CCN(C(=O)c3ccc(N4CCCC4=O)cc3)CC2)c1C	31.3%	5.4	0.6	.	0.744	-0.9	.
CCCCOc1cccc(C(=O)N(Cc2cccs2)C2CCS(=O)(=O)C2)c1 (stereo unspecified)	-2.5%	4.4	-0.6	.	0.687	1.8	.
Cc1noc(C)c1C(=O)N1CCCC(Nc2ccc(C(C)C)cc2)C1 (stereo unspecified)	.	0.8	4.0	2.2	0.633	-5.7	i
C/C=C/C(=O)OCc1csc(CC(=O)Nc2ccccc2C)n1	0.5%	-0.7	3.2	-6.1	0.656	2.4	i
COc1cccc(NC(=O)C2CCCC2)c1	.	2.8	-2.0	-0.3	0.671	2.7	i
CCNC(=O)N1C(=O)C2(OCCO2)c2ccccc21	-4.6%	-0.5	1.7	.	0.705	0.8	.

Not all compounds are listed (hit frequency here may not be typical).
